# Bioassay records: PubChem, National Center for Advancing Translational Sciences (NCATS)
# Methyltransferases: Primary Screen for Target Class Profiling of Small Molecule Inhibitors of Methyltransferases; actives 3.9% (n = 25,000); purified enzyme, MTase-Glo SAH luminescence; hits give low values; AID 1745853, 2022; calls only at 40 µM; active = -50% or lower on at least one of six enzymes; inconclusive = the cases between; inactive = as a rule above -30% on all six;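 also: enzymes were COMT GAMT GNMT HNMT NNMT and PNMT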
#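 Each enzyme was reacted with SAM and its substrate, with compounds tested once at 40 uM; SAH formed was read by MTase-Glo luminescence.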
# Calls only; i = inactive; ? = inconclusive; + = active, no number. % is scaled to controls: 0 for no effect and ±100 for the full control effect. An excerpt. The share of hits here may be higher or lower than overall.
SMILES,Methyltransferases
CCCC1c2ccc(C)n2CCN1C(=O)Nc1ccc(OCC)cc1 (centres undefined),i
CCOC(=O)c1cc2n(n1)CC(C)(C(=O)NCCCOC)N(c1ccc(C)c(Cl)c1)C2=O (centres undefined),i
CSCCC(=O)N1CCc2[nH]nc(-c3ccc(C(F)(F)F)cc3)c2C1,i
Cc1cccc(N2C(=O)c3cc(-c4ccccc4)nn3CC2(C)C(=O)NCc2ccccc2)c1C (centres undefined),i
CC(C)Nc1nc2c(S(=O)(=O)c3ccccc3)nnn2c2ccc(Cl)cc12,i
CC(C)NC(=O)c1ccc2c(=O)n(Cc3ccccc3)c3nnc(SCc4ccc(F)cc4)n3c2c1,i
O=C(c1cc(-c2ccsc2)c2nncn2n1)N1CCN(Cc2ccccc2)CC1,i
CCCn1c(=O)c2ccc(C(=O)NC(C)CC)cc2n2c(SCC(=O)Nc3ccccc3F)nnc12 (centres undefined),i
Cc1nc(-c2cccnc2)ncc1C(=O)N1CCC2(CC1)CC(=O)N(C)C2,i
COc1cccc(CNC(=O)Cn2nc3ccc(SCc4ccc(Cl)cc4)nn3c2=O)c1,i
CN(CC(=O)NC1CCCCC1)S(=O)(=O)c1ccc2[nH]c3c(c2c1)CCCC3,i
COc1ccccc1CNC(=O)c1ccc2c(=O)nc3c(-c4cccc(F)c4)n[nH]n3c2c1,i
CCN1C(=O)c2c(C(=O)NCc3ccccc3F)ncn2CC1(C)C(=O)NC1CCCC1 (centres undefined),i
CC(C)Cn1c(=O)c2ccccc2n2c(CCC(=O)NCc3ccccc3Cl)nnc12,i
COc1cc(C2OCC3C(c4ccc(OC5OC(CO)C(O)C(O)C5O)c(OC)c4)OCC23)ccc1O (centres undefined),?
COc1ccc(CNC(=O)c2cc3n(n2)CC(C)(C(=O)NCc2ccc(F)cc2)N(C)C3=O)cc1 (centres undefined),i
O=C1NCCOCCN(S(=O)(=O)c2ccc3c(c2)CCC3)[C@@H]2CCCC[C@H]12,i
Cc1ccc(C(=O)Cn2nc3n(CC(C)C)c(=O)c4ccccc4n3c2=O)cc1,i
Cc1ccc(C)c(Cn2nc3n(C(C)C)c(=O)c4ccc(C(=O)NCC(C)C)cc4n3c2=O)c1,i
Cc1ccc(Cn2c(=O)c3ccccc3n3c(CCC(=O)NCCCN4CCOCC4)nnc23)cc1,i
O=C(C1CC1)N1CCc2cc(Br)c(S(=O)(=O)NCCN3CCN(c4ccccc4F)CC3)cc21,i
Nc1nc2c(cnn2CCc2ccccc2)c2nc(-c3ccco3)nn12,+
CN1C(=O)CO[C@H]2CN(Cc3c[nH]c4ccccc34)C[C@H]21,i
C=CCCC(CN1CCSCC1)Oc1ncc(CC)cn1 (centres undefined),i
COC(=O)c1cc2n(n1)CC(C)(C(=O)NC1CCC(C)CC1)N(c1ccc(C(C)C)cc1)C2=O (centres undefined),i
Cn1cc(CN2CCN3C(=O)N(C4CCCCC4)C[C@H]3C2)cn1,i
O=C(/C=C/c1ccc(O)cc1)c1ccc(O)cc1O,i
O=C(Cc1ccccc1)N1CCCC2(CC(c3cccc(C(F)(F)F)c3)=NO2)C1 (centres undefined),i
CCCn1c(=O)c2ccc(Cl)cc2n2c(=O)n(CC(=O)c3ccc(F)cc3)nc12,i
CCCSCCCN1C(=O)c2cc3occc3n2CC1(C)C(=O)NC1CCC(C)CC1 (centres undefined),i
O=C(CSc1nnc2n(CCc3ccccc3)c(=O)c3ccccc3n12)NC1CCCCC1,i
CCCCN1C(=O)c2ccccc2CC1(C)C(=O)NCc1ccccc1 (centres undefined),i
CCN(Cc1cccc2nonc12)CC1CCCN(CCc2cccc(OC)c2)C1 (centres undefined),?
COc1ccc(S(=O)(=O)Nc2cccnc2Nc2ccc(O)cc2)cc1,i
COc1cc(C[C@H]2C(=O)OC[C@@H]2Cc2ccc(OC)c(OC)c2)ccc1O,i
Cc1nnnn1CC(=O)N1CCCC(c2ccccc2)(c2ccccc2)C1,i
Cc1nn(-c2ccccc2)c2c1C(C1CC1)N(C1CCN([S+](=O)([O-])c3ccccc3)C1)C2=O (centres undefined),i
O=C(OCC1OC(Oc2ccc(O)cc2COC(=O)C2(O)C(O)CCC(=O)C2OC(=O)C2C=CCC2)C(OC(=O)C2C=CCC2)C(O)C1O)C1C=CCC1 (centres undefined),i
Cn1c(=O)c2ccc(C(=O)NC3CCCCC3)cc2n2c(=O)n(Cc3ccc(N4CCCC4=O)cc3)nc12,i
CCCn1c(=O)c2ccccc2n2c(SCC(=O)NC3CCCCC3)nnc12,i
COc1ccc(-c2cnc([C@@H]3COCCN3Cc3nc4ccccc4n3C)[nH]2)cc1,i
COc1ccc(CNc2nc3c(S(=O)(=O)c4ccc(C)c(C)c4)nnn3c3ccccc23)cc1,i
COC(=O)c1ccc2c(c1)C1C=CCC1C(c1ccc(Br)cc1)N2 (centres undefined),i
COCCNC(=O)C1(C)Cn2nc(-c3ccccc3)cc2C(=O)N1c1ccc(F)cc1C (centres undefined),i
CC(/C=C/C(=O)NO)=C\[C@@H](C)C(=O)c1ccc(N(C)C)cc1,?
CC(NS(=O)(=O)c1ccc2[nH]c(=O)[nH]c2c1)c1ccccc1 (centres undefined),i
COc1cc2c(cc1NS(C)(=O)=O)C(c1cccc3c1OCO3)CC(=O)N2 (centres undefined),i
COCC(=O)N[C@H]1C[C@@H](CO)N(Cc2cccc(OC)c2)C1,i
COc1cccc(C(=O)N(C)C2CCc3ccccc32)c1 (centres undefined),i
Cc1cccc(CNC(=O)C2CCc3sc(C(=O)N4CCOCC4)cc3C2)c1 (centres undefined),i
CCOC(=O)c1cc2n(n1)CC(C)(C(=O)NC1CCCC1)N(Cc1ccc(OC(C)C)cc1)C2=O (centres undefined),i
COC(=O)c1ccc(COCC2=CC(C)(C)Oc3ccc(OC)cc32)cc1,i
CCCn1c(=O)c2ccc(Cl)cc2n2c(=O)n(Cc3cc(C)ccc3C)nc12,i
O=C(NCc1ccccc1-c1ccccc1C(=O)NCCc1ccccn1)OCc1ccccc1,i
CCOC(=O)N1CCC2(CC1)N=C(CCC(C)C)NC2=O,i
O=C(CCC1CCCN(Cc2cc3ccccc3s2)C1)Nc1ccccc1F (centres undefined),i
O=c1ccc2ccc(O)c(O)c2o1,i
CC(C)c1nc(CNC(=O)c2ccc(NC3CCCCC3)nc2)no1,i
O=C(O)/C=C/c1ccc(-c2ccc(O)c(C34CC5CC(CC(C5)C3)C4)c2)cc1,+
CC(CN1C(=O)c2ccc(-c3ccco3)n2CC1(C)C(=O)NC1CCCCC1)c1ccccc1 (centres undefined),i

# At a glance, 15 of the compounds above:
SMILES,Methyltransferases
COc1ccc(-c2cnc([C@@H]3COCCN3Cc3nc4ccccc4n3C)[nH]2)cc1,i
COc1ccc(CNc2nc3c(S(=O)(=O)c4ccc(C)c(C)c4)nnn3c3ccccc23)cc1,i
COC(=O)c1ccc2c(c1)C1C=CCC1C(c1ccc(Br)cc1)N2 (centres undefined),i
COCCNC(=O)C1(C)Cn2nc(-c3ccccc3)cc2C(=O)N1c1ccc(F)cc1C (centres undefined),i
CC(/C=C/C(=O)NO)=C\[C@@H](C)C(=O)c1ccc(N(C)C)cc1,?
CC(NS(=O)(=O)c1ccc2[nH]c(=O)[nH]c2c1)c1ccccc1 (centres undefined),i
COc1cc2c(cc1NS(C)(=O)=O)C(c1cccc3c1OCO3)CC(=O)N2 (centres undefined),i
COCC(=O)N[C@H]1C[C@@H](CO)N(Cc2cccc(OC)c2)C1,i
COc1cccc(C(=O)N(C)C2CCc3ccccc32)c1 (centres undefined),i
Cc1cccc(CNC(=O)C2CCc3sc(C(=O)N4CCOCC4)cc3C2)c1 (centres undefined),i
CCOC(=O)c1cc2n(n1)CC(C)(C(=O)NC1CCCC1)N(Cc1ccc(OC(C)C)cc1)C2=O (centres undefined),i
COC(=O)c1ccc(COCC2=CC(C)(C)Oc3ccc(OC)cc32)cc1,i
CCCn1c(=O)c2ccc(Cl)cc2n2c(=O)n(Cc3cc(C)ccc3C)nc12,i
O=C(NCc1ccccc1-c1ccccc1C(=O)NCCc1ccccn1)OCc1ccccc1,i
CCOC(=O)N1CCC2(CC1)N=C(CCC(C)C)NC2=O,i

# The results go on:
SMILES,Methyltransferases
CC(C)CCN1C(=O)c2ccc(-c3ccco3)n2CC1(C)C(=O)NC1CCCCC1C (centres undefined),i
O=C(/C=C/c1ccc(O)cc1)OCC1=C[C@@H](O)[C@@H]2C=CO[C@@H](O[C@@H]3O[C@H](CO)[C@@H](O)[C@H](O)[C@H]3O)[C@H]12,i
CCC(C)NC(=O)c1ccc2c(=O)n(C(C)C)c3nn(CC(=O)Nc4ccc(C(C)C)cc4)c(=O)n3c2c1 (centres undefined),i
CCn1cc(C(=O)N2C[C@@H](CO)[C@H](c3ccccn3)C2)cn1,i
CC(CCc1ccccc1)NC(=O)CCn1ccc2cc(S(=O)(=O)N3CCCCC3)ccc21 (centres undefined),i
CN1CCC(OC2CCN(C(=O)COc3ccc(Cl)cc3)CC2)CC1,i
COc1cccc(NC(=O)CCc2nnc3n(CCCOC(C)C)c(=O)c4ccccc4n23)c1,i
CCCC1c2cccn2CCN1C(=O)NCCCOC (centres undefined),i
Cc1nc(C2CC(O)C2)cc(N2CCN(c3cnn(C)c(=O)c3)CC2)n1 (centres undefined),i
CCc1cccc(N2C(=O)c3ccccc3CC2(C)C(=O)NCc2ccccc2)c1 (centres undefined),i
CC(C)CCNC(=O)C1(C)Cn2c(ccc2-c2ccco2)C(=O)N1CC(C)c1ccccc1 (centres undefined),i
O=C(c1nnc(CN2CCN(c3ccccn3)CC2)n1-c1cccnc1)N1CCC[C@@H]1c1cccc(F)c1,i
COc1ccc(CNC(=O)c2cc3n(n2)CC(C)(C(=O)NCc2ccccc2)N(C)C3=O)cc1 (centres undefined),i
COc1ccc(C(=O)N2CCC([C@@H]3CNC[C@H]3CO)CC2)cc1,i
Cc1ccc(NC(=O)c2cc3n(n2)CC(C)(C(=O)NC2CCCCCC2)N(C)C3=O)cc1C (centres undefined),i
CCCn1c(=O)c2ccccc2n2c(=O)n(CC(=O)Nc3ccc(F)cc3)nc12,i
Cc1ccsc1C(=O)N1CCN(c2cc(-c3cccs3)[nH]n2)CC1,i
Cc1ccc(-c2nc(C3CC(=O)N(c4ccc(F)c(Cl)c4)C3)no2)cc1C (centres undefined),i
O=C1OC(c2ccc(O)cc2)C(O)=C1Cc1ccccc1 (centres undefined),i
O=C(NCCc1ccccn1)c1ccc(OC2CCNCC2)nc1,i
NCCNS(=O)(=O)c1cccc2c(Cl)cccc12,i
Cc1csc(NC(=O)c2ccc(COc3cccc(Cl)c3)o2)n1,i
Cc1cccc(N2CCN(C(=O)CCc3nnc4n(Cc5ccc(F)cc5)c(=O)c5ccccc5n34)CC2)c1C,i
O=C(c1ccc2c(=O)nc3c(-c4cccc(F)c4)n[nH]n3c2c1)N1CCN(c2ccccn2)CC1,i
CCC(C)NC(=O)c1ccc2c(=O)n(CC(C)C)c3n[nH]c(=O)n3c2c1 (centres undefined),i
CCN1CCN(C(=O)c2cc(-c3ccccc3)cn2C)CC1,i
CN1CC2(CCN(C(=O)c3cccn3C)CC2)CC(c2ccccc2)C1=O (centres undefined),i
CCCn1c(=O)c2ccccc2n2c(=O)n(Cc3ccccc3)nc12,i
CC(=O)O[C@@H]1[C@@H](O)[C@H](C)O[C@@H](O[C@H]2[C@@H]3C=CO[C@@H](O[C@@H]4O[C@H](CO)[C@@H](O)[C@H](O)[C@H]4O)[C@@H]3[C@@]3(CO)O[C@@H]23)[C@@H]1OC(=O)/C=C/c1ccccc1,i
C=C1C(=O)O[C@@H]2[C@H]3C(C)=CC(=O)C3=C(C)[C@@H](OC(=O)/C(C)=C\C)[C@H](O)[C@@H]12,i
Cc1ccc(S(=O)(=O)c2nnn3c2nc(N2CCCC(C)C2)c2ccccc23)cc1 (centres undefined),i
CCc1ccc(C2c3cccn3-c3sc4c(c3CN2C(=O)Nc2ccc(OC)cc2)CCCC4)cc1 (centres undefined),i
O=C1[C@H]2CN(Cc3c[nH]c4ccccc34)C[C@H]2C(=O)N1CCc1ccccc1,i
CCOc1ccccc1NC(=O)CN1C(=O)C(c2ccccc2)=NC12CCCCCC2,i
O=C(CCc1nnc2ccc(-c3ccc(Cl)cc3)nn12)N1CCC(Cc2ccccc2)CC1,i
O=C(C1CCC1)N1CCC[C@H]1c1nc(-c2ccc(F)cc2)n[nH]1,i
CCCCNC(=O)C(C)n1ccc2cc(S(=O)(=O)N3CCCC3)ccc21 (centres undefined),i
C[N+](C)(C)CCOP(=O)(O)OP(=O)([O-])OC[C@H]1O[C@@H](n2ccc(N)nc2=O)[C@H](O)[C@@H]1O,i
COc1ccc(Cn2cnc3cccnc32)cc1,i
CCN(Cc1ccccc1)C(=O)CCC[C@H]1NC[C@@H]2CC1CN(Cc1ccccc1)C2,?
Cn1nnnc1C1CCCN(C(=O)CCC2CCCC2)C1 (centres undefined),i
C=CCN1CCN(C(=O)[C@@H]2Cc3c[nH]c4cccc(c34)[C@H](CC(C)C)N2)CC1,?
COc1ccc(CN2C(=O)CSc3c(c4ccccc4n3C)C2C(=O)NCc2ccccc2)cc1 (centres undefined),i
CC(C)=CC(=O)N[C@H]1C[C@@H](C(=O)N[C@H](Cc2ccccc2)C(N)=O)N(C(=O)C=C(C)C)C1,i
COc1ccc(OC)c(NC(=O)c2sc(=S)n3c2[nH]c(=O)c2ccc(Cl)cc23)c1,+
O=C(c1ccc[nH]c1=O)N1CC(F)(F)C[C@H]1c1nc(C2CC2)no1,i
Cc1cc(N2C(=O)Cn3cccc3C2C(=O)NC2CCC(C)CC2)ccc1Br (centres undefined),i
